NPYLR7 ag: activates Aedes aegypti NPYLR7 receptor; HEK293T NPYLR7/Galpha15, GCaMP6s calcium fluorescence; activation, % at 10 µM; actives 0.15% (n = 270,000); AID 1259423; in the data active means activation above about 40%;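 further: 0% = vehicle and 100% = reference agonist at the receptor; some compounds past the cut are filed as inactive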
NPYLR7 ag max-min: further read-out of NPYLR7 ag, marked with its call; activation, %; measured here: Max-Min RFU normalised activation; some inactives read as strong as hits;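 span of the calcium signal over five minutes; 0% = vehicle and 100% = native peptide agonist; compound fluorescence can raise it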
An asterisk follows results filed as active; & = joins results of further samples. The list is partial (hit frequency here may not be typical).

SMILES | NPYLR7 ag | NPYLR7 ag max-min
O=C(O)CCNC(=O)CC1S\C(=N/N=C\C=C\c2ccccc2)NC1=O (centres undefined) | -8 | -14
COc1cc(Nc2ncc(F)c(Nc3ccc4c(n3)NC(=O)C(C)(C)O4)n2)cc(OC)c1OC | -4&-3 | -10&-13
Cc1ccc(Sc2ccc(S(=O)(=O)NCC(C)(C)N3CCOCC3)cc2)cc1C | 5 | 2
CC(C)NC(=O)Cn1c(CO)cnc1SCC(=O)N1CCc2ccccc21 | 3 | 2
NS(=O)(=O)c1ccc(NC=C2C(=O)OC3(CCCCC3)OC2=O)cc1 | 0 | 2
Cc1nc(NC(=O)N2CCN(C(C)(C)C(N)=O)CC2)sc1C | 10 | -4
Cc1cc(N2CCN(Cc3ccccc3)CC2)n2c(nc3ccccc32)c1C#N | 1 | -1
Cn1nnnc1SCCNC(=O)CC1COCCN1 (centres undefined) | -6 | -5
O=C(NCCN1CCCC1)c1csc(CSc2nnc(-c3ccncc3)n2-c2ccccc2Cl)n1 | -7 | 1
COc1ccc(-c2[nH]nc3c2C(c2ccc(OC)cc2)C(C#N)C(=N)O3)cc1 (centres undefined) | -3 | -9
Cc1ccc(C2CC(C(F)(F)F)n3ncc(C(=O)Nc4cccc(C(F)(F)F)c4)c3N2)cc1 (centres undefined) | -5 | -10
COc1ccc(C)cc1-n1cnnc1C1CC(=O)N(C)C1 (centres undefined) | 2 | -3
CCCCOC(=O)c1ccc(NC(=O)c2cccn(OCc3cccc([N+](=O)[O-])c3)c2=O)cc1 | 16 | 14
COc1ccc(CCn2cnc3c([nH]c4ccc(C)cc43)c2=O)cc1OC | -3 | -10
CC(NC(=O)CCc1ccc(S(=O)(=O)N2CCCC2)cc1)c1cccc(Cl)c1 (centres undefined) | 3 | 10
c1coc(-c2cc(CSc3nnc(-c4ccco4)n3C3CCCCC3)no2)c1 | -2 | 14
COc1ccc(/C(C)=N\OCC(=O)N=Nc2c(O)[nH]c3ccc(Br)cc23)cc1OC | -5 | -8
C=CCn1c(SCc2cccc(C(=O)OC)c2)nnc1-c1cccc(C)c1 | 5 | 7
COC(=O)c1ccc(C)c(S(=O)(=O)N2CCN(C(=O)NC3CCCCC3)CC2)c1 | 3 | 1
CCOC(=O)CCC(=O)N(CC(=O)Nc1cc(-c2ccccc2)nn1-c1ccc(F)cc1)Cc1ccco1 | -4 | -6

Three neighbouring entries from above, quoted:
SMILES | NPYLR7 ag | NPYLR7 ag max-min
COc1ccc(CCn2cnc3c([nH]c4ccc(C)cc43)c2=O)cc1OC | -3 | -10
CC(NC(=O)CCc1ccc(S(=O)(=O)N2CCCC2)cc1)c1cccc(Cl)c1 (centres undefined) | 3 | 10
c1coc(-c2cc(CSc3nnc(-c4ccco4)n3C3CCCCC3)no2)c1 | -2 | 14

5 compounds already listed, arranged by number of heavy atoms, ascending:
SMILES | NPYLR7 ag | NPYLR7 ag max-min
Cc1nc(NC(=O)N2CCN(C(C)(C)C(N)=O)CC2)sc1C | 10 | -4
NS(=O)(=O)c1ccc(NC=C2C(=O)OC3(CCCCC3)OC2=O)cc1 | 0 | 2
CC(C)NC(=O)Cn1c(CO)cnc1SCC(=O)N1CCc2ccccc21 | 3 | 2
Cc1cc(N2CCN(Cc3ccccc3)CC2)n2c(nc3ccccc32)c1C#N | 1 | -1
O=C(NCCN1CCCC1)c1csc(CSc2nnc(-c3ccncc3)n2-c2ccccc2Cl)n1 | -7 | 1

Additional records:
SMILES | NPYLR7 ag | NPYLR7 ag max-min
CCOc1ccccc1N1C(=O)CSC1c1ccc(NC(=O)c2cccs2)cc1 (centres undefined) | 0 | 16
CCC(C)NC(=O)c1cc(NC(=O)Nc2ccc(C)c(Cl)c2)ccc1N1CCCCC1 (centres undefined) | 0 | 8
COc1ccc(C(C)=O)cc1CC(=O)NC(CN(C)C)c1ccccc1 (centres undefined) | 6 | 9
CCOc1cc(Cl)c(CN2CCN(c3ccc(C)nn3)CC2)cc1OC | 8 | 1
CN1CCC(O)(Cn2cnc3ccc(F)cc3c2=O)CC1 | 0 | -1
c1ccc(-n2ncc3c(N4CCN(Cc5nc6ccccc6[nH]5)CC4)ncnc32)cc1 | -15 | -22
C=CCSc1nc2c(c(=O)[nH]c(=O)n2C)n1CCCc1ccccc1 | -7 | 10
COCc1cc(N2CCN(c3ccccc3F)CC2)nc(SCc2ccc(C(=O)NCc3ccncc3)cc2)n1 | 13 | 13
O=C(NCc1ccc(Cl)cc1)c1cncn1-c1ccc(-c2ccc(F)c(F)c2)cc1 | 5 | 4
Cc1cnccc1CN(C)Cc1cc2n(n1)CCNC2 | -2 | -1
CS(=O)(=O)CCNc1cc2ccccc2c(Cl)n1 | 5 | 1
CN(C)S(=O)(=O)N1CCc2[nH]nc(-c3cccc4ccccc34)c2C1 | 20 | 6
CC(=O)Nc1ccc(Oc2ccccc2C#N)c(F)c1 | 6 | 5
CCOc1ccc(-n2nnc3c(N4CCN(C(=O)c5ccccc5C(F)(F)F)CC4)ncnc32)cc1 | -1 | -3
COc1cc(-c2ccnc(N3CCN(C(=O)c4c(C(F)(F)F)ccc(Cl)c4F)CC3)n2)cc(OC)c1OC | 13 | 7
Nc1ccc(OCCOc2ccc(N)cc2)cc1 | -2 | 0
COCCNC(=O)Cn1nc(-c2cccs2)c2sc(C)nc2c1=O | 1 | -3
O=S1(=O)CCC(NS(=O)(=O)c2ccc(Cl)c(Cl)c2)C1 (centres undefined) | 0 | 33
CCc1cccc(CC)c1NC(=O)c1ccc(NC(=O)C2CC2)s1 | 1 | 9
CCO/C=C1\C(=O)N(c2ccc(C)cc2)C(=O)c2ccccc21 | -6 | 3

Record cards, from the list above. Order of values: NPYLR7 ag, NPYLR7 ag max-min
COc1ccc(C(C)=O)cc1CC(=O)NC(CN(C)C)c1ccccc1 (centres undefined) across the screens: 6, 9
CN(C)S(=O)(=O)N1CCc2[nH]nc(-c3cccc4ccccc34)c2C1 across the screens: 20, 6

A different layout for part of the listing above:
> CS(=O)(=O)CCNc1cc2ccccc2c(Cl)n1
  NPYLR7 ag: 5
  NPYLR7 ag max-min: 1

> CCOc1cc(Cl)c(CN2CCN(c3ccc(C)nn3)CC2)cc1OC
  NPYLR7 ag: 8
  NPYLR7 ag max-min: 1

Following part
SMILES | NPYLR7 ag | NPYLR7 ag max-min
Cc1cc(C(=O)N(CCCN(C)C)c2nc3ccc(F)cc3s2)n(C)n1 | 0 | -2
CCOC(=O)c1ccc2c(c1)nc(SCc1c(F)c(F)c(OC)c(F)c1F)n2CCOC | 4 | 1
Cn1cccc1C1(C(F)(F)F)NN(c2ccccc2)C(=N)C1C#N (centres undefined) | 8 | 2
Cc1ccc(NC(=S)NC(=O)c2cccs2)nc1 | 1 | 4
CCOc1ccc(CN(C(=O)c2cccc(-n3cnnc3)c2)C2CC2)cc1 | 9 | 3
Cn1c(=O)c2c(nc3n2CC(c2ccccc2)=NN3Cc2ccccc2)n(C)c1=O | 3 | -5
Cc1cccc(NC(=S)NC(C)(C)C)c1 | 3 | 7
CCn1cc(C(CC(=O)O)c2ccc3c(c2)OCO3)c2ccccc21 (centres undefined) | 0 | 1
Cc1c(Cl)ccc2sc(NCCN(C)C)nc12 | 1 | -1
CCCCc1ccc(C(=O)N2CCCN(c3nc(Cc4ccccc4)ns3)CC2)cc1 | -3 | 8
Cc1nc(SCc2ccc(C(=O)O)cc2)nc(N2CCN(Cc3ccc4c(c3)OCO4)CC2)c1C | 10 | 23
Cn1cc(C(=O)N2CCN(Cc3ccccn3)CC2)c2nn(-c3ccccc3)c(=O)c-2c1 | -1 | -6
Cc1nnnn1-c1ccc(Cc2n[nH]c(Cc3ccccc3)n2)cc1 | -6 | -7
Cc1oc(C)c(C(=O)NC2(c3ccccc3)CCC2)c1Br | -22 | -23
Cc1ccc(C)c(Cn2cnc3c(nnn3-c3ccc(C)c(Cl)c3)c2=O)c1 | -4 | -8
Clc1ccc(C2=Nc3ncnn3C(c3ccc(Cl)cc3Cl)C2)cc1 (centres undefined) | -1 | 4
Cc1cccc2c(C(=O)N(C)C(C)C)cc(-c3cnc(-c4cccnc4)nc3)nc12 | 12 | 4
CN1C(C)(C)CC(NC(=O)CN2C(=O)C(c3ccccc3)NC(=O)c3ccccc32)CC1(C)C (centres undefined) | -1 | 7
CCCCc1c(O)nc(SCCC(=O)O)[nH]c1=O | 3 | -2
Cc1nc(NCCNC(=O)c2cccc(Cl)c2)cc(-n2ccnc2C)n1 | -15 | -21
COc1ccc(C(=O)N2CCC(n3cc(C(C)(C)C)nn3)CC2)c(OC)n1 | 4 | 2
CCOC(=O)Cc1csc(N=Cc2nc(-c3ccc(C)cc3)oc2O)n1 | -1 | -2
CCOc1ccc2[nH]c(=O)c(CN3C[C@H](O)[C@@H](N4CCOCC4)C3)cc2c1 | -1 | 9
C=CCn1c(SCC(=O)NCCCN2CCOCC2)nc2sc3c(c2c1=O)CCCC3 | -2 | -4
CCOC(=O)c1sc2nc(CN(C)Cc3cccc(Cl)c3)[nH]c(=O)c2c1C | 5 | 1
O=C(CCN1C(=O)NC2(CCCC2)C1=O)N=c1sccn1Cc1ccccc1 | -4 | -5
COc1ccc(CCC(=O)N2CCCC(Nc3ccccc3)C2)cc1OC (centres undefined) | 2 | -2
Cc1csc(NC(=O)Cc2cc(Cl)c3c(c2)OCCO3)n1 | 0 | 1
Fc1ccc(F)c(C2c3[nH]c4ccccc4c3CCN2Cc2ccccn2)c1 (centres undefined) | -3 | -4
NCC1Cc2cc(-c3nccc4occc34)cc(Cl)c2O1 (centres undefined) | 1 | -4
O=C(/C=C\c1ccccc1)NCc1cc(-c2cc3ccccc3o2)on1 | 1 | -1
COc1ccc(-c2cc(C(=O)NCC3(O)CCCNCC3)[nH]n2)cc1 (centres undefined) | 4 | 2
COc1ccc(C2=NN(C(=O)CN3CCN(C(C)=O)CC3)C(c3cc(OC)ccc3OC)C2)c(OC)c1 (centres undefined) | 9 | 5
CNc1oc(-c2ccc(COc3ccccc3)o2)nc1C#N | -1 | 20
O=C(CCCC1CCCCC1)NS(=O)(=O)c1cccc2nsnc12 | -3 | 21
CC(C)(C)CC(C)(C)NC(=S)NC(=O)c1ccco1 | 3 | -3
Cc1ccc(C(=O)NCCC2CCCO2)c(O)c1C (centres undefined) | 2 | -3
CC1C2CC(C(CN(C)C)/C2=N\O)C1(C)C (centres undefined) | -10 | -13
CCN(CC)c1ncccc1CNC(=O)c1ccnc(NC)c1 | 3 | 2
C=CCn1nnc(NC(=O)c2ccc(C)cc2)n1 | 0 | -1
CCOC(=O)CSc1nnc(NCC(=O)OC)c(=O)[nH]1 | 2 | -1
N#CCCCCS(=O)(=O)c1ccnc2ccccc12 | 8 | 6
COc1ccccc1OCC(=O)N=Nc1c(O)[nH]c2ccc(Br)cc12 | 0 | -6
Nc1ccc(-c2nc3cc(Cl)ccc3o2)c(Cl)c1 | 6 | 5
CCCCCCCCC(=O)Nc1c(-c2ccc(OC)c(OC)c2)nc2cc(C)ccn12 | -1 | 6
C[C@H]1CC[C@@H](C(C)(C)O)CC2=C1CC[C@@H]2C | 4 | 1
Cc1ccc(Cc2nc(N3CCN(C(=O)c4cccc(F)c4)CC3)c3c(-c4cccnc4)noc3n2)cc1 | 12 | 2
O=C(/C=C/c1ccc([N+](=O)[O-])cc1)N(Cc1ccccc1)Cc1cccn1Cc1ccc(F)cc1 | 2 | 9
Cc1cnccc1NCCNC(=O)c1cnn2c1CCCC2 | -1 | -2
CC(C)N(CC(=O)N1CCc2sccc2C1COc1ccc(F)cc1)CC(O)Cc1ccccc1 (centres undefined) | 6 | 5
COc1cn(C)c(C(=O)Nc2ccc(Cl)cc2)cc1=O | -4 | -8
COc1coc(C(=O)Nc2ccc(F)c(F)c2)cc1=O | -1 | -3
COc1cc(C(=O)N2CCC(C(=O)c3ccc4c(c3)OCCO4)CC2)c([N+](=O)[O-])cc1OC | 1 | 3
CN1CC(C(=O)Nc2ccc(=O)n(Cc3ccccc3)c2)CC1=O (centres undefined) | 1 | 0
C=CCN(Cc1cccc(OC)c1)C(=O)c1sc(NC)nc1C | 12 | 1
COc1cc(=O)n(-c2ccc(C)cc2)nc1C(=O)NCc1ccc(C)cc1 | 6 | 1
Cc1nnsc1CN(C)C(=O)C(=O)c1ccco1 | 6 | 3
COc1ccc(CCN(C)Cc2ccc(C(=O)N3C4CCC3CC(Oc3ccccc3C(C)C)C4)cc2)cc1OC (centres undefined) | 15 | 10
CSc1ncccc1C(=O)Nc1ccc(C#N)cc1 | 4 | 1
O=C(c1cccs1)N(Cc1ccccc1OS(=O)(=O)c1ccc(F)cc1)CC1CCCO1 (centres undefined) | 1 | 6
The list continues.
SMILES | NPYLR7 ag | NPYLR7 ag max-min
COC(=O)C(C)Sc1nc2sc3c(c2c(=O)n1-c1ccccc1)CCC3 (centres undefined) | 5 | 3
Cc1ccc2nc(-c3ccccc3F)c(NC(=O)C34CC5CC(CC(C5)C3)C4)n2c1 | -5 | -2
COC(=O)C1=C(C)NC(C)=C(C(=O)OC)C1C(=O)OCC(=O)c1cc(C)n(C2CC2)c1C | -1 | -3
CCOCCCn1c(C)cn2c3c(=O)n(Cc4ccc(Br)cc4)c(=O)n(C)c3nc12 | 9 | 8
CCc1ccc(NC(=O)c2cc3ccccc3oc2=O)cc1 | 0 | 7
COc1ccc(S(=O)(=O)N2CCN(C(=O)c3ccc(-c4nnco4)cc3)CC2)cc1OC | 6 | 1
O=C(NC1CCN(c2ccccc2C(=O)N2CCCC2)CC1)C1CC1 | -1 | 3
COc1cc2ccccc2cc1C(=O)Nc1ncnc2sccc12 | -6 | -9
CCCCNC(=O)C1CN(C(=O)CC(C)(C)C)CC1c1ccc(F)cc1 (centres undefined) | 1 | -2
O=C(CSc1ncnc2c1nnn2Cc1ccc(F)cc1)NC1CCCC1 | 18 | 19
Nc1ccc2nc(SCC(=O)Nc3cccc(C(F)(F)F)c3)sc2c1 | -8 | -11
O=C(NCCc1nc2c(s1)CCCC2)c1cc(=O)c2ccccc2o1 | 5 | 4
COCCNC(=O)c1c(C)c(C)c(C)n1Cc1ccc(F)cc1 | -5 | 7
Nc1nonc1C(=O)NCCNCc1cccs1 | 8 | 4
CC(C)CCN(Cc1c(-c2ccccc2)noc1N1CCOCC1)C(=O)NC(C)C | -3 | -3
Cc1ccc(CNC(=O)Cn2nnnc2CN2CCCC2)s1 | 2 | -1
COc1ccc(C(=O)c2coc3ccc(O)cc23)cc1 | 4 | 3
